# D2 ag: agonists of human D2 dopamine receptor (beta-arrestin). P14416. DiscoveRx PathHunter D2 beta-arrestin, luminescence, 90 min; 100% = 57 uM dopamine signal. activation, % (test concentration not listed). 360,000 compounds, 0.084% hits. AID 624465; in the data active = activation above about 40%; inconclusive = about 15% to 40%; inactive = below about 15%; further: compound concentration not given in the record; the text of the record calls up to 30% inactive
#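 DiscoveRx PathHunter D2 beta-arrestin cells (2,100/well) attached overnight, then compound-stimulated 90 min at 37 C in HBSS/10 mM HEPES/0.1% Tween-20 buffer; beta-galactosidase complementation read by luminescence after 1 h at ambient temperature. Dopamine 57 uM final (EC100) as control.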
# Six1-Eya2 blk: Six1/Eya2 interaction inhibition | Q15475+O00167 | AID 651725 | 360,000 compounds, 0.56% hits | activity change, % (concentration not given with the values) | AlphaScreen GST-Six1/His-Eya2 binding, biochemical; stronger effect = lower value; control for the full effect not named in the record; in the data active = activity change below about -65%; inconclusive = about -30% to -65%; inactive = above about -30%; further: on the % scale 0 is the no-effect control and ±100 the full control effect
#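 GST-Six1 + His-Eya2 (5X stock: 250/500 nM); Tris pH 8.0, 300 mM NaCl, 0.05% BSA, 0.02% Tween 20; GSH donor/Ni acceptor beads; 1 h 37 °C dark; AlphaScreen readout.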
# PINK1 expr mod: PINK1 expression modulation; PINK1 immunofluorescence, high-content cytometry, 24 h; Potency, µM (doses to about 76.6 µM), for inactives: top-dose activation (PINK1 increase), actives largely listed as activators; 410,000 compounds, 0.2% hits; AID 624263; active = well fitted activation curve with a large enough effect; inconclusive = small, poorly fitted or top-dose-only effect; inactive = flat fitted curve, though single readings scatter; cell line not stated here;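 further: potency means the concentration at half of the fitted maximal effect; % of control where 0% means no effect; nearly all actives have a fitted effect of over 65% in size; a mitochondrial uncoupler was the plate control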
#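 Stable cell line treated 24 h with compounds at 5 concentrations (CCCP controls), then fixed and immunostained for PINK1 plus nuclear and cell stains; PINK1 immunofluorescence quantified by laser-scanning microplate cytometry.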
# Sfp PPTase inh: Sfp phosphopantetheinyl transferase inhibition. Q9F4F7. Biochemical Sfp PPTase activity, qHTS. Potency, µM, inactives show max response, negative = inhibition, actives largely listed as inhibitors. 310,000 compounds, 3.5% hits. AID 1490; active means well fitted inhibition curve with a large enough effect; inconclusive means small, poorly fitted or top-dose-only effect, or another doubt; inactive means no such curve, though single readings can be large or run the other way;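 further: the enzyme is Sfp with the accession as filed and its product quenches rhodamine fluorescence; potency means the concentration at half of the fitted maximal effect; 0% = enzyme reaction without inhibitor and -100% = no enzyme wells; top concentration of the series not given in the record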
#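 Sfp 15 nM + cpd, 15 min RT; start w/ rhodamine-CoA 5 uM, BHQ-2-YbbR 12.5 uM (final); 50 mM Hepes pH 7.6, 10 mM MgCl2, 0.01% NP-40, 0.01% BSA; read 525/598 nm at 0 and 30 min.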
# CtBP-E1A inh: blocks the CtBP interaction with E1A; AlphaScreen GST-E1A/His-CtBP binding, 1536-well; stronger effect = lower value; control for the full effect not named in the record; 340,000 compounds, 0.49% hits; activity change, % (concentration not given with the values); in the data active means activity change below about -65%; inconclusive means about -30% to -65%; inactive means above about -30%; further: on the % scale 0 is the no-effect control and ±100 the full control effect
#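 AlphaScreen with 125 nM GST-E1A and 125 nM His-CtBP (5X stocks) in Tris pH 8.0, 300 mM NaCl, BSA, Tween 20, TCEP. Compounds preincubated 2 h at 37 deg C, then glutathione donor/nickel acceptor beads added for 1 h at 37 deg C in dark.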
# TRPV1 potentiator: enhances activation of the human vanilloid receptor TRPV1; AID 540277; 320,000 compounds, 0.02% hits; potentiation, % at 8.33 µM; TRPV1-expressing cells, Fluo-8 calcium influx, capsaicin EC20 potentiation; host cell line not named in the record; control for the full effect not named in the record; active means potentiation above 80%; inconclusive means 30% to 80%; inactive means below 30%; further: 0% is about no effect
# Target sequence (Q8NER1 whole entry, looked up): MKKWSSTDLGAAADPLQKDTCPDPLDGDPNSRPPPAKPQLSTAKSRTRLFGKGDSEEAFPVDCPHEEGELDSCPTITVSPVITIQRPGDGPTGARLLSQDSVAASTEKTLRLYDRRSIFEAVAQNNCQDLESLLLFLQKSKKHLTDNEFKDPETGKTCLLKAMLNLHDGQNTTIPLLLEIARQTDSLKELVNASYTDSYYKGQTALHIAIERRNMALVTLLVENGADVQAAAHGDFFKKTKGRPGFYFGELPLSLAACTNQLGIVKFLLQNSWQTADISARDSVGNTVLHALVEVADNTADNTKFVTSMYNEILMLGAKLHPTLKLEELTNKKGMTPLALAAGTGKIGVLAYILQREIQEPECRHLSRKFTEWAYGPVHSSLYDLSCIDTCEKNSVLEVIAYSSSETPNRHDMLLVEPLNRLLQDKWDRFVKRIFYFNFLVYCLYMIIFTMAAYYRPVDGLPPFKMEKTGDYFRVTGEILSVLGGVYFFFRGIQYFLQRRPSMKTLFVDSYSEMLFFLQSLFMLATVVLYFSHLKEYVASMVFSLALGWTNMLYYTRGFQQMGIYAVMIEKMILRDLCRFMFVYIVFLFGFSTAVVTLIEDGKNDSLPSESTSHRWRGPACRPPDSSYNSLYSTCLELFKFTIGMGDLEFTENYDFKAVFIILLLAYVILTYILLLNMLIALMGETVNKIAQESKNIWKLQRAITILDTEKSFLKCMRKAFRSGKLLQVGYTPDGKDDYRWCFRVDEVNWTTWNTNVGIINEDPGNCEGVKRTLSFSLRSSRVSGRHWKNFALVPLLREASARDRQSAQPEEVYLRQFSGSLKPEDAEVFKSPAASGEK
#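 Fluo-8 calcium influx in TRPV1-expressing cells, kinetic read (ex 480/em 520 nm). Compound added and read 3 min for agonist activity, followed by capsaicin at EC20 final and 2 min further read for enhancement.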
# D2 potentiator: potentiates the human D2 dopamine receptor allosterically; AID 624464; 360,000 compounds, 0.23% hits; potentiation, % (concentration not given with the values); DiscoveRx D2 beta-arrestin cells, luminescence, 90 min; 100% = 57 uM dopamine signal; active = potentiation of 50% or more; inconclusive = 30% to 50%; inactive = 30% or less;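 further: tested on top of an EC20 dose of dopamine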
#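 D2 cells co-treated with compound plus 50 nM dopamine (EC20) for 90 min at 37 deg C to detect potentiation. Beta-arrestin recruitment was read as enzyme-fragment luminescence after 1 h at ambient temperature. Full response was set by 57 uM dopamine.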
# The depositor's hits bear a star; ? = inconclusive; / = not tested or not shown; [ ] = dose if it differs, or a comment.
SMILES,D2 ag,Six1-Eya2 blk,PINK1 expr mod,Sfp PPTase inh,CtBP-E1A inh,TRPV1 potentiator,D2 potentiator
Cc1ccc(NC(=O)CN2C(=O)NC3(CCc4ccccc43)C2=O)cc1Cl (centres undefined),1.8,-8,7.0%,6%,-4,4,-8
Oc1c(Cl)cc(Cl)c(Cl)c1CN1CCOCC1,-2.4,-9,1.0%,/,-17,/,-4
Cc1cc(C)c(Cn2c3ccccc3c3cnn(CC(=O)NCCN4CCOCC4)c(=O)c32)c(C)c1,-1.5,-6,2.7%,-21%,/,15,-11
CC(C(=O)NCc1ccccc1)N1CCN(c2ccc(F)cc2)CC1 (centres undefined),-3.9,4,3.1%,13%,-1,0,-25
O=C(c1cnccn1)N(Cc1ccco1)C1(C(=O)NC2CCCCC2)CCCCC1,1.7,1,1.0%,6%,0,-11,2
C=CCn1c(-c2ccccc2OCC)n[nH]c1=S,-7.0,-15,-0.5%,-2%,5,1,-25
CCCCC(=O)Nc1ccc(C)c(S(=O)(=O)N2CCCCCC2)c1,-8.4,8,-1.1%,/,-2,-14,-1
O=C(NCc1ccc(F)cc1)c1cc(-c2ccco2)on1,-2.4,2,-6.7%[38.3 µM],13%,7,-20,-7
CCOc1ccc(N(CC(=O)NCc2ccc(F)cc2)C(=O)c2snc(C(N)=O)c2N)cc1,2.7,2,8.6%,-9%,-16,1,3
CSc1ccc(NC(=O)Nc2cc(C)ccn2)cc1,-0.4,5,7.9%,7%,-5,?,-3
CC(C)n1c(-c2ccccc2F)n[nH]c1=S,1.0,2,5.1%[38.3 µM],-5%,-4,-21,-3
CN(CC(=O)Nc1ccccc1C(F)(F)F)C(=O)Cc1ccccc1F,-3.0,8,-0.9%,5%,8,22,-4
CC(NC(=O)c1ccc2ccccc2n1)c1ccccc1 (centres undefined),-2.7,2,0.9%,-1%,14,-6,1
Cc1cc2oc(C(=O)NC3CCS(=O)(=O)C3)c(C)c2cc1C (centres undefined),-0.2,-4,2.2%,1%,-10,-21,-10
CN1CCN(CCCc2c3c(cc4c2CCC4)CCC3)CC1,-7.6,3,0.2%,-9%,2,16,-6
COc1ccc(C(=O)NC(=S)NNC(=O)c2ccc(C)cc2)cc1,-8.0,-14,-4.1%,/,-14,/,-14
O=C1CCCC2=C1C(c1cccc(O)c1)C1=C(N2)c2ccccc2C1=O (centres undefined),-4.2,3,-1.5%,-15%,-12,1,0
CN(C)CCCNc1nc(N)c([N+](=O)[O-])c(NCCO)n1,-4.0,19,2.1%,19%,0,6,0
CCN(CC(=O)NC(c1ccccc1)c1ccccc1)Cc1nc2ccccc2c(=O)[nH]1,-3.5,-10,2.3%,-4%,-2,11,-11
O=C(c1ccccc1)N1CCCC(C(=O)N2CCc3ccccc3C2)C1 (centres undefined),-3.1,-3,1.5%,5%,5,-14,5
Cc1ccoc1C(=O)Nc1cccc(Oc2ccccc2)c1,3.4,4,0.9%,8%,8,-2,-2
CN(C)C(=O)CNc1n[nH]c(=S)[nH]c1=O,-1.7,10,-0.3%,20µM*,9,/,-4
Cc1ccc(Cl)cc1S(=O)(=O)N1CCC(C(=O)NC2CCN(Cc3ccccc3)CC2)CC1,-3.3,1,4.1%,0%,6,0,-16
C=CCn1c(N2CCCCCC2)nc2c1c(=O)[nH]c(=O)n2C,-0.9,-2,9.7%[38.3 µM],14%,16,16,-9
O=C(Cc1cc(=O)[nH]c(=O)[nH]1)NCc1ccc(Cl)cc1,-1.8,1,3.0%,-3%,9,0,-5

# With a hit mark in Sfp PPTase inh (from the list above):
molecule	D2 ag	Six1-Eya2 blk	PINK1 expr mod	Sfp PPTase inh	CtBP-E1A inh	D2 potentiator
CN(C)C(=O)CNc1n[nH]c(=S)[nH]c1=O	-1.7	10	-0.3%	20µM*	9	-4

# The list goes on:
SMILES,D2 ag,Six1-Eya2 blk,PINK1 expr mod,Sfp PPTase inh,CtBP-E1A inh,TRPV1 potentiator,D2 potentiator
CNS(=O)(=O)c1cc(-c2nnc(Nc3ccc(NC(C)=O)cc3)c3ccccc23)ccc1C,-3.3,-17,6.2%,-8%,-2,-14,-4
CCCCN(C(=O)CSc1n[nH]c(-c2ccc(C)cc2)n1)c1c(N)n(CCCC)c(=O)[nH]c1=O,-1.4,0,-0.9%,/,10,8,-4
O=C(NCc1ccco1)/C(=C\c1ccco1)NC(=O)c1ccccc1Cl,0.8,4,-1.5%,7%,4,5,0
CN(C(=O)c1ccc(COc2ccccc2Br)o1)c1ccccc1,2.9,0,-0.3%,?,-3,-3,-2
CCc1cccc(CC)c1N1C(=O)C2=C(SCCCS2)C1=O,-2.0,2,3.5%,/,-2,/,-7
Fc1cccc(-c2nn[nH]n2)c1,-2.7,0,3.5%,20%,1,6,-4
COc1ccc(N=NC2=C(O)CC(C)(C)CC2=O)cc1,-3.1,-4,-2.5%,5%,-6,-4,-12
O=C(NCc1ccncc1)C(=O)Nc1nccs1,3.2,-1,0.0%,-10%,3,-3,-1
CCC1(c2ccccc2)NC(=O)N(CC(=O)Nc2ccc(OC)nc2)C1=O (centres undefined),-3.8,-9,-0.6%,7%,-9,13,-4
Cc1cnnc2ccc3c(no[n+]3[O-])c12,-5.4,1,0.3%,1%,-5,2,7
CN(CC(=O)NCCCN1CCOCC1)S(=O)(=O)c1ccc(Br)cc1,-2.3,0,0.1%,9%,1,2,-23
CCCCNC(=O)CSc1nnc(-c2ccco2)n1C,0.7,7,3.8%,-16%,0,2,-10
NC(=O)C1CCN(CC(=O)Nc2ccccc2Sc2ccccc2)CC1,-3.5,5,-2.3%,1%,-2,-4,-2
Cc1nc2ccccc2c(=O)n1-c1ccc(F)c(NC(=O)c2cccs2)c1,-1.4,-13,0.5%,/,-25,?,6
COc1cc(OC)cc(-c2c(C#Cc3ccsc3)c3cc(-c4ccc(C(N)=O)cc4)ccc3n2C)c1,-4.7,-5,-0.6%,/,1,12,-3
C=CCn1c(-c2cc(-c3ccc(C)cc3)nc3ccccc23)n[nH]c1=S,5.0,-3,1.8%,2%,-10,11,-7
COc1ccc(S(=O)(=O)N2CCCC(C(=O)NCCC(C)C)C2)cc1 (centres undefined),-5.4,2,1.2%,-5%,1,5,-12
CC(=O)Nc1ccc(S(=O)(=O)NC2=C(N3CCN(c4ccc(F)cc4)CC3)C(=O)c3ccccc3C2=O)cc1,12,-79*,-0.1%,-13%,-78*,0,19
CCc1nc(SCC(=O)Nc2nccs2)c2oc3ccccc3c2n1,-1.7,5,13%,1%,10,3,-8
CN(Cc1cn(C)nc1-c1ccccc1F)Cc1nccn1C,-0.1,-5,-0.8%,-11%,5,-1,-9
Cn1cc(C=CC(=O)O)c2nccnc21,-3.3,-5,-1.1%,/,-1,/,-1
O=C(O)c1ccc(/C=N/Nc2ccc(C(F)(F)F)cn2)cc1,-2.9,7,5.2%,-1%,-1,?,-1
Cc1ccc(-n2nnnc2SCC(=O)NC2CCCc3ccccc32)cc1 (centres undefined),-1.8,-2,0.6%,-17%,6,-19,-19
CC1(C2CCC3(C)OC3C2)CO1 (centres undefined),-2.7,1,1.2%,/,0,/,-7
CC1=NN(c2ccccc2)C(=O)C1C(=O)c1ccc([N+](=O)[O-])cc1 (centres undefined),-8.4,-2,-0.9%,1%,1,-3,-7

# Ordered by SMILES length (ascending): part of the list above
SMILES,D2 ag,Six1-Eya2 blk,PINK1 expr mod,Sfp PPTase inh,CtBP-E1A inh,TRPV1 potentiator,D2 potentiator
COc1ccc(N=NC2=C(O)CC(C)(C)CC2=O)cc1,-3.1,-4,-2.5%,5%,-6,-4,-12
O=C(O)c1ccc(/C=N/Nc2ccc(C(F)(F)F)cn2)cc1,-2.9,7,5.2%,-1%,-1,?,-1
Cc1nc2ccccc2c(=O)n1-c1ccc(F)c(NC(=O)c2cccs2)c1,-1.4,-13,0.5%,/,-25,?,6
CC1=NN(c2ccccc2)C(=O)C1C(=O)c1ccc([N+](=O)[O-])cc1 (centres undefined),-8.4,-2,-0.9%,1%,1,-3,-7

# In a second layout: two of the compounds above.
Molecule: O=C(NCc1ccco1)/C(=C\c1ccco1)NC(=O)c1ccccc1Cl
  D2 ag = 0.8
  Six1-Eya2 blk = 4
  PINK1 expr mod = -1.5%
  Sfp PPTase inh = 7%
  CtBP-E1A inh = 4
  TRPV1 potentiator = 5
  D2 potentiator = 0
Molecule: CCC1(c2ccccc2)NC(=O)N(CC(=O)Nc2ccc(OC)nc2)C1=O (centres undefined)
  D2 ag = -3.8
  Six1-Eya2 blk = -9
  PINK1 expr mod = -0.6%
  Sfp PPTase inh = 7%
  CtBP-E1A inh = -9
  TRPV1 potentiator = 13
  D2 potentiator = -4

# Later entries.
SMILES,D2 ag,Six1-Eya2 blk,PINK1 expr mod,Sfp PPTase inh,CtBP-E1A inh,TRPV1 potentiator,D2 potentiator
COc1ccc(CNC(=S)NC(C)CCc2ccccc2)cc1 (centres undefined),-3.0,-2,2.3%,3%,-4,-11,-9
COc1ccc(NC(=O)c2cc3ccccc3oc2=O)c(OC)c1,1.7,-2,?,-9%,/,-1,0
Cn1c(CC(=O)NC(C)(C)CO)c(Sc2ccccc2)c2ccccc21,-2.3,22,-0.6%,3%,0,-12,-23
CCOc1cc(S(=O)(=O)N2CCCCCC2)ccc1F,-0.7,10,8.0%[38.3 µM],1%,14,-2,-2
CC12CCC(=O)N1C(C(=O)NCc1ccc(Cl)cc1Cl)CS2 (centres undefined),-5.4,-6,0.3%,/,4,?,7
COc1ccc(N2CC(C(=O)N3CCCC(C)C3)CC2=O)cc1 (centres undefined),-2.6,1,0.7%,-2%,4,-17,0
CC(=O)N1CCN(C(=S)Nc2cc(S(=O)(=O)N3CCOCC3)ccc2Cl)CC1,-3.4,2,-0.5%,20%,/,-5,-14
CCn1cc(C(=O)N[C@@H](CCSC)C(=O)NCCO)c(=O)c2cc3c(cc21)OCO3,-1.9,-3,0.8%,12%,5,14,-9
COc1cc2c(cc1OC)C(C)N(C(=O)c1cc3c(=O)oc4ccc(C)cc4c3s1)CC2 (centres undefined),-2.1,-1,-0.1%,-12%,2,4,1
Cc1ccc(-c2csc(NC(=O)C3=NN(c4ccccc4)C(=O)CC3)n2)cc1,4.0,0,2.6%,1%,-6,6,-3
O=C(CCn1c(=O)oc2ccccc21)N(Cc1ccccc1)c1ccccn1,-1.1,1,4.6%[38.3 µM],/,-13,/,-3
CCOC(=O)c1c(NC(=O)COC(=O)c2nccnc2N)sc(C(=O)N(C)C)c1C,4.8,5,0.0%,/,-2,8,4

# Screening data (PubChem BioAssay)
